FGF22 binding: binders of human FGF22 protein, primary screen, FGF22 synaptogenesis inhibitor project, biophysical, thermal shift, single point; Fibroblast growth factor 22 (Homo sapiens), Q9HCT0; recombinant FGF22 thermal shift, SYPRO orange fluorescence; percent of sucrose octasulfate shift, DMSO zero; calls only at 9.99 µM; actives 1.5% (n = 340,000);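 active = melting point raised past a set limit in the mean and every replicate; three in four hits are not shown here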
Target sequence (Q9HCT0 whole entry, looked up): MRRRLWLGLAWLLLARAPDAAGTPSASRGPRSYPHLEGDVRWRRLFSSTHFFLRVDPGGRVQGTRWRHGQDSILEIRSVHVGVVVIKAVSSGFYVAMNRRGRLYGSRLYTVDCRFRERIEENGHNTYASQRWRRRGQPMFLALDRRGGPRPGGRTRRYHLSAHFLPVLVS
Calls only; i = inactive; + = active, no number. The list is partial; the hit share may differ from the screen's.

molecule	FGF22 binding
COc1ccc(-c2ccc([C@H]3[C@H](C#N)N(C(=O)NC(C)C)[C@H]3CO)cc2)cc1	i
C[C@@H]1CN([C@@H](C)CO)C(=O)c2cc(NS(=O)(=O)c3ccccc3)ccc2O[C@@H]1CN(C)Cc1ccc(C(=O)Nc2ccccc2N)cc1	i
C[C@@H]1CN([C@@H](C)CO)C(=O)c2cc(NC(=O)CCCCCC(=O)Nc3ccccc3N)ccc2O[C@@H]1CN(C)S(=O)(=O)c1cccs1	i
CCCNC(=O)N[C@@H]1C=C[C@H](CC(=O)NC2CCC2)O[C@@H]1CO	i
C[C@H](CO)N1C[C@H](C)[C@H](CN(C)Cc2ccc(C(=O)O)cc2)Oc2ccc(NC(=O)c3ccncc3)cc2C1=O	i
C[C@@H]1CCCCO[C@@H](CN(C)C(=O)Cc2ccccc2)[C@H](C)CN([C@H](C)CO)C(=O)c2cc(NC(=O)Cc3ccccc3)ccc2O1	i
C[C@@H]1CN([C@@H](C)CO)C(=O)c2cc(NC(=O)c3ccncc3)ccc2O[C@@H](C)CCCCO[C@@H]1CN(C)C	i
Cc1ccc(S(=O)(=O)N(C)C[C@@H]2OCCCC[C@@H](C)Oc3ccc(NS(=O)(=O)c4cn(C)cn4)cc3C(=O)N([C@@H](C)CO)C[C@H]2C)cc1	i
C[C@@H]1CN([C@H](C)CO)C(=O)c2cc(NS(=O)(=O)c3ccc(Cl)cc3)ccc2O[C@@H]1CN(C)Cc1ccc(Cl)c(Cl)c1	i
O=C(NCC[C@@H]1CC[C@H](NS(=O)(=O)c2cccc(Cl)c2)[C@@H](CO)O1)c1cnccn1	i
C[C@@H]1CN([C@H](C)CO)C(=O)c2cc(NC(=O)C3CCCCC3)ccc2O[C@@H]1CN(C)C(=O)NC1CCCCC1	i
COc1ccc(C[C@@H]2CCn3cc(nn3)COC[C@@H](C(C)C)NC2=O)cc1	i

Looked up one by one from above (two):
molecule	FGF22 binding
C[C@@H]1CN([C@H](C)CO)C(=O)c2cc(NS(=O)(=O)c3ccc(Cl)cc3)ccc2O[C@@H]1CN(C)Cc1ccc(Cl)c(Cl)c1	i
Cc1ccc(S(=O)(=O)N(C)C[C@@H]2OCCCC[C@@H](C)Oc3ccc(NS(=O)(=O)c4cn(C)cn4)cc3C(=O)N([C@@H](C)CO)C[C@H]2C)cc1	i

Remaining list, next part.
molecule	FGF22 binding
C[C@H](CO)N1C[C@H](C)[C@@H](CN(C)S(=O)(=O)c2cccs2)Oc2c(NC(=O)c3ccc(-c4nccs4)cc3)cccc2C1=O	i
COc1ccc(CNC(=O)C[C@H]2C[C@H]3c4cc(NC(=O)C5CCC5)ccc4O[C@H]3[C@H](CO)O2)cc1	i
CC(CNC(=O)[C@@H](Cc1ccccc1)NC(=O)[C@H]1O[C@@H](n2cnc3c(=O)[nH]c(N)nc32)[C@H](O)[C@@H]1O)c1ccccc1 (stereo partly drawn)	i
CO[C@@H]1CN(C)C(=O)c2cc(NC(=O)c3ccccc3F)ccc2OC[C@H](C)N(CC2CCOCC2)C[C@H]1C	i
Cc1noc(C)c1S(=O)(=O)Nc1ccc2c(c1)C(=O)N([C@@H](C)CO)C[C@H](C)[C@@H](CN(C)CC1CC1)O2	i
COCC(=O)N1C[C@@H](C)[C@@H](OC)CN(C)C(=O)c2cc(NS(C)(=O)=O)ccc2OC[C@H]1C	i
C/C=C/c1ccc([C@H]2[C@@H](CO)N(C(=O)c3cnccn3)C23CN(C(=O)CC)C3)cc1	i
Cc1c(COC(=O)NC(C)C)c(COC(=O)NC(C)C)c2n1CS(=O)(=O)C2	i
COc1ccc(C2CC(=O)C(c3ccc(Cl)c(Cl)c3)=CN2Cc2ccccc2)cc1 (stereo not drawn)	i
C[C@@H]1CN([C@@H](C)CO)C(=O)c2cc(C#CC(C)(C)O)cnc2O[C@@H]1CN(C)Cc1cncnc1	i
C[C@@H]1CN([C@H](C)CO)S(=O)(=O)c2ccc(C#Cc3cccc(F)c3)cc2O[C@H]1CN(C)C(=O)CN1CCOCC1	i
C[C@@H]1CN([C@H](C)CO)C(=O)c2cc(NC(=O)Nc3ccc(C(F)(F)F)cc3)ccc2O[C@@H]1CN(C)Cc1ccc(C(=O)O)cc1	+
COc1ccc(C#Cc2ccc([C@@H]3[C@@H](CO)N4CCCCN(S(=O)(=O)c5ccccc5)C[C@H]34)cc2)cc1	i
C[C@@H]1CN([C@@H](C)CO)C(=O)Cc2cc(NC(=O)CCN3CCOCC3)ccc2O[C@H]1CN(C)Cc1ccc(Cl)c(Cl)c1	i
O=C(NC1CCCC1)N1CCCCN2[C@@H](CO)[C@@H](c3ccc(-c4cccnc4)cc3)[C@@H]2C1	i
O=C(C[C@H]1C[C@H]2c3cc(NC(=O)C4CCC4)ccc3O[C@H]2[C@@H](CO)O1)NCc1cccnc1	i
C[C@H]1CN([C@@H](C)CO)C(=O)c2cccc(NC(=O)NC3CCCCC3)c2O[C@H]1CN(C)C(=O)Nc1ccc2c(c1)OCO2	i
Cc1ccc(S(=O)(=O)N(C)C[C@H]2Oc3ccc(NC(=O)CCCCCC(=O)Nc4ccccc4N)cc3C(=O)N([C@@H](C)CO)C[C@@H]2C)cc1	i
C[C@@H]1CN([C@@H](C)CO)C(=O)c2cc(NS(=O)(=O)c3ccc(Cl)cc3)ccc2O[C@@H](C)CCCCO[C@H]1CN(C)C(=O)CCC(F)(F)F	i
COCC(=O)N1C[C@@H]2[C@H](c3ccccc31)[C@H](CO)N2C(=O)c1ccccc1F	+
CCN(Cc1cc(OC)c(OC)c(OC)c1)S(=O)(=O)c1ccccc1Br	i
C[C@H]1CN([C@@H](C)CO)C(=O)c2cc(NC(=O)Cc3ccccc3)ccc2O[C@H]1CN(C)Cc1ccc(Cl)c(Cl)c1	i
COc1ccc(CN(C)C[C@H]2Oc3ccc(NS(=O)(=O)c4ccc(OC)cc4)cc3C(=O)N([C@@H](C)CO)C[C@H]2C)cc1	i
C[C@@H]1CN([C@@H](C)CO)C(=O)c2cc(C#CCN(C)C)cnc2O[C@@H]1CN(C)Cc1ccccc1F	i
CCCC(=O)Nc1ccc2c(c1)C(=O)N(C)[C@@H]1CC[C@H](CC(=O)NCC3CCCCC3)O[C@H]1CO2	i
CCCNC(=O)N1CC2(C1)CN(C(=O)CC1CC1)[C@H](CO)c1c2c2ccc(OC)cc2n1C	i
CC(C)C#Cc1ccc2c(c1)O[C@H](CN(C)C(=O)CC1CC1)[C@@H](C)CN([C@@H](C)CO)S2(=O)=O	i
O=C(C1CCCC1)N1C[C@H]2[C@@H](c3ccccc31)[C@@H](CO)N2C(=O)Nc1cccc(F)c1	i
C[C@@H]1CCCCO[C@@H](CN(C)Cc2ccc(C(=O)O)cc2)[C@H](C)CN([C@H](C)CO)C(=O)c2cc(NC(=O)Cc3ccccc3)ccc2O1	i
COc1ccc(S(=O)(=O)Nc2ccc3c(c2)C(=O)N([C@H](C)CO)C[C@H](C)[C@H](CN(C)Cc2ccncc2)OCCCC[C@@H](C)O3)cc1	i
Cc1ccc(-c2ccc3c(c2)O[C@@H](CN(C)C(=O)C2CCC2)[C@H](C)CN([C@@H](C)CO)S3(=O)=O)cc1	i
COc1cc(CN2CC3(CCN(C(=O)Nc4c(C)noc4C)CC3)c3c(n(C)c4cc(OC)ccc34)[C@H]2CO)cc(OC)c1	i
C[C@H](CO)N1C[C@H](C)[C@H](CN(C)C(=O)Nc2ccc3c(c2)OCO3)Oc2ncc(-c3ccc(F)cc3)cc2C1=O	i
C[C@H]1CN([C@@H](C)CO)C(=O)Cc2cc(NC(=O)C3CCCCC3)ccc2O[C@@H]1CN(C)Cc1ccc(Oc2ccccc2)cc1	i
CC(C)C#Cc1cnc2c(c1)C(=O)N([C@H](C)CO)C[C@H](C)[C@@H](CN(C)C(=O)c1cccc(F)c1)O2	i
C[C@H](CO)N1C[C@H](C)[C@@H](CN(C)C(=O)Nc2ccc(F)cc2)Oc2ccc(NC(=O)CCCCCC(=O)Nc3ccccc3N)cc2CC1=O	i
C[C@@H]1CCCCO[C@@H](CN(C)C(=O)c2ccccc2)[C@H](C)CN([C@@H](C)CO)C(=O)c2cc(NC(=O)Cc3ccccc3)ccc2O1	i
CC(C)NC(=O)N(C)C[C@H]1OCCCC[C@@H](C)Oc2ccc(NC(=O)Nc3ccc(C(F)(F)F)cc3)cc2C(=O)N([C@@H](C)CO)C[C@H]1C	i
O=C(O)C[C@@H]1C[C@H]2c3cc(NC(=O)Nc4ccccc4F)ccc3O[C@H]2[C@@H](CO)O1	i
C[C@H](CO)N1C[C@H](C)[C@@H](CN(C)C)Oc2ncc(-c3ccncc3)cc2C1=O	i
Cc1noc(C)c1NC(=O)N(C)C[C@@H]1OCCCC[C@H](C)Oc2ccc(NC(=O)CCC(F)(F)F)cc2C(=O)N([C@@H](C)CO)C[C@H]1C	i
COc1cccc(NC(=O)N(C)C[C@@H]2Oc3cc(C#Cc4ccc(F)cc4)ccc3S(=O)(=O)N([C@@H](C)CO)C[C@@H]2C)c1	i
CN1c2ccc(-c3ccc(F)cc3)cc2[C@H]2[C@H](CCN2C(=O)C2CCOCC2)[C@@H]1CO	i
Cc1ccc(-c2ccc3c(c2)O[C@@H](CN(C)S(C)(=O)=O)[C@@H](C)CN([C@H](C)CO)S3(=O)=O)cc1	i
COc1ccc(NC(=O)N(C)C[C@@H]2OCCCC[C@@H](C)Oc3ccc(NC(=O)Nc4ccccc4)cc3C(=O)N([C@H](C)CO)C[C@@H]2C)cc1	i
C[C@@H]1CN([C@H](C)CO)C(=O)c2cccc(NS(=O)(=O)c3cccs3)c2O[C@H]1CN(C)Cc1ccc(-c2ccccc2)cc1	i
COCC(=O)Nc1ccc2c(c1)C(=O)N(C)[C@@H]1CC[C@@H](CC(=O)NCc3ccc(OC)cc3)O[C@@H]1CO2	i
O=C(C[C@@H]1CC[C@@H]2[C@H](COC[C@H](O)CN2Cc2ccc3c(c2)OCO3)O1)N1CCCCC1	i

Sorted by length of the SMILES (lowest first): part of the list above.
molecule	FGF22 binding
CCN(Cc1cc(OC)c(OC)c(OC)c1)S(=O)(=O)c1ccccc1Br	i
CCCNC(=O)N1CC2(C1)CN(C(=O)CC1CC1)[C@H](CO)c1c2c2ccc(OC)cc2n1C	i
Cc1ccc(-c2ccc3c(c2)O[C@@H](CN(C)C(=O)C2CCC2)[C@H](C)CN([C@@H](C)CO)S3(=O)=O)cc1	i
C[C@@H]1CN([C@H](C)CO)C(=O)c2cccc(NS(=O)(=O)c3cccs3)c2O[C@H]1CN(C)Cc1ccc(-c2ccccc2)cc1	i
COc1cccc(NC(=O)N(C)C[C@@H]2Oc3cc(C#Cc4ccc(F)cc4)ccc3S(=O)(=O)N([C@@H](C)CO)C[C@@H]2C)c1	i
C[C@@H]1CCCCO[C@@H](CN(C)C(=O)c2ccccc2)[C@H](C)CN([C@@H](C)CO)C(=O)c2cc(NC(=O)Cc3ccccc3)ccc2O1	i
COc1ccc(S(=O)(=O)Nc2ccc3c(c2)C(=O)N([C@H](C)CO)C[C@H](C)[C@H](CN(C)Cc2ccncc2)OCCCC[C@@H](C)O3)cc1	i

Going on with the list:
molecule	FGF22 binding
Cc1ccc(S(=O)(=O)N(C)C[C@H]2OCCCC[C@@H](C)Oc3ccc(NC(=O)C4CCCCC4)cc3C(=O)N([C@@H](C)CO)C[C@H]2C)cc1	i
C[C@@H]1CN([C@@H](C)CO)C(=O)c2cc(C#Cc3cccnc3)cnc2O[C@@H]1CN(C)C(=O)CN(C)C	i
CCCC(=O)N1CC2(CN(Cc3cccnc3)C2)c2c([nH]c3cc(OC)ccc23)[C@H]1CO	i
CCC(=O)N1CC[C@@H]2[C@@H](CO)N(C)c3ccc(-c4ccc(F)cc4)cc3[C@@H]21	i
C[C@@H]1CCCCO[C@@H](CN(C)C)[C@@H](C)CN([C@H](C)CO)C(=O)c2cc(NC(=O)c3ccccc3)ccc2O1	i
C[C@H](CO)N1C[C@H](C)[C@@H](CN(C)C(=O)C2CCOCC2)Oc2ncc(C#CCc3ccccc3)cc2C1=O	i
N#Cc1cccc(-c2ccc3c(c2)[C@H]2[C@H](CCN2Cc2ccc4c(c2)OCO4)[C@@H](CO)N3)c1	i
CCNC(=O)C[C@H]1CC[C@H](NC(=O)C2CCC2)[C@@H](CO)O1	i
C[C@@H]1CN([C@@H](C)CO)C(=O)c2cc(NC(=O)Nc3cccc4ccccc34)ccc2O[C@@H]1CN(C)Cc1ccc(C(F)(F)F)cc1	i
CCCNC(=O)N1CCC2(CC1)CN(C(=O)c1ccccc1)[C@@H](CO)c1[nH]c3cc(OC)ccc3c12	i
CO[C@H]1CN(C)C(=O)c2cc(NS(C)(=O)=O)ccc2OC[C@H](C)N(C(=O)C2CCC2)C[C@H]1C	i
CCCC(=O)Nc1ccc2c(c1)C(=O)N(C)C[C@@H](OC)[C@H](C)CN(C(=O)c1ccccn1)[C@H](C)CO2	i
CS(=O)(=O)Nc1ccc2c(c1)[C@@H]1C[C@H](CC(=O)NCCc3ccccc3)O[C@@H](CO)[C@@H]1O2	+
C[C@H](CO)N1C[C@H](C)[C@@H](CN(C)C)Oc2c(NC(=O)c3cnccn3)cccc2C1=O	i
CNC(=O)C[C@@H]1CC[C@@H]2[C@@H](COc3ccc(NC(=O)c4ccc5c(c4)OCO5)cc3C(=O)N2C)O1	i
COc1ccc(NC(=O)Nc2ccc3c(c2)C(=O)N([C@H](C)CO)C[C@@H](C)[C@@H](CN(C)Cc2ccc4c(c2)OCO4)OCCCC[C@@H](C)O3)cc1	i
COc1ccc(NC(=O)N(C)C[C@@H]2Oc3ccc(NS(=O)(=O)c4ccccc4)cc3C(=O)N([C@H](C)CO)C[C@H]2C)cc1	+
COC(=O)C[C@@H]1C[C@H]2c3cc(NC(=O)Cc4ccncc4)ccc3O[C@H]2[C@@H](CO)O1	i
O=C1N(CCS(=O)(=O)c2ccccc2)c2ccccc2[C@@H]2OC(c3ccc(OCCCO)cc3)=N[C@]12CCS(=O)(=O)c1ccccc1	i
C[C@H]1CN([C@@H](C)CO)C(=O)Cc2cc(NC(=O)Cn3cnnn3)ccc2O[C@@H]1CN(C)Cc1ccccc1	i
